High-throughput results from PubChem.
VDR inhibitor – Inhibitors of the vitamin D receptor (VDR): qHTS | Potency, µM, without a hit: max response, negative = inhibition, actives largely listed as inhibitors | hit rate 0.93% among 400,000 | VDR-SRC2-3 peptide fluorescence polarization, 2 h | Vitamin D3 receptor (Homo sapiens), P11473; active = well fitted inhibition curve with a large enough effect; inconclusive = small, poorly fitted or top-dose-only effect, or another doubt; inactive = no such curve, though single readings can be large or run the other way; also: series mostly up to about 120 µM
Target sequence (P11473 whole entry, looked up): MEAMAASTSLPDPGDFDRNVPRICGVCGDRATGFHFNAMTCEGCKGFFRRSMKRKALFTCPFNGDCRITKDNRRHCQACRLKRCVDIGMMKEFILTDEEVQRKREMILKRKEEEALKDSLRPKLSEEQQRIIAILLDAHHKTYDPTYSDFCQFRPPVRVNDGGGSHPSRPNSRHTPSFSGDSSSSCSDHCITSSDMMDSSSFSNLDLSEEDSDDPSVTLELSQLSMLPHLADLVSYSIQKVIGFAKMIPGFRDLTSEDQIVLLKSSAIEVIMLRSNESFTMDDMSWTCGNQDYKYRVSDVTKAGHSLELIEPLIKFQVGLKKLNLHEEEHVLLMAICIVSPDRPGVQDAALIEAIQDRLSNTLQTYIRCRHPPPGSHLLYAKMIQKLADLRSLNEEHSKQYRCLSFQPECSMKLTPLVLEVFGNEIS
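Compounds are added to VDR with labelled SRC2-3 coactivator peptide and held 2 h at room temperature. Inhibition of the VDR–peptide interaction is then read as a change in fluorescence polarization.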
Numbers without * were called inactive; ? = inconclusive; & = joins results of further samples. % is scaled to controls: 0 for no effect and ±100 for the full control effect; potency is read from the fitted curve at half-maximal effect. Some of the compounds tested (hit frequency here may not be typical).

SMILES	VDR inhibitor
CN1c2ccccc2C(O)=C(C(=S)Nc2ccccc2)S1(=O)=O	-7.6%
N=C(N)c1ccc(/C=C/c2ccc(C(=N)N)cc2O)cc1	1.4%&-2.2%
COc1c(Br)cc([N+](=O)[O-])c(OC)c1C(=O)NC(=O)Nc1c(Cl)cccc1Cl	12.4%
Cc1cccc(NC(=O)C2Cc3ccccc3O/C2=N\O)c1 (configuration not stated)	11.8%
CC(CC(=O)Nc1cccc(S(=O)(=O)N2CCCCC2)c1)c1ccccc1 (configuration not stated)	4.5%
O=c1c2ccccc2c(C=Nc2cccc(S(=O)(=O)NC3=NCCCCC3)c2)c(O)n1Cc1ccccc1	-21.9%
C=CCC[C@H](Cc1ccc(F)cc1)C(=O)OC[C@@H]1CCCN1C(=O)[C@@H](CC=C)CC(=O)NCCO	0.5%
COc1ccccc1Nc1nc2ccc(Cl)cc2nc1-n1nc(C)cc1C	-13.5%
CC1CC(C)CN(S(=O)(=O)c2ccc(C(=O)N3CCOCC3)cc2)C1 (configuration not stated)	-3.9%
CCOC(=O)C1CCCN(c2c(NCCN(CC)c3ccccc3)c(=O)c2=O)C1 (configuration not stated)	3.2%
Cc1ccc(Nc2ncccc2C(=O)O)cc1C	?
CN(Cc1ccccc1)S(=O)(=O)c1ccc(NC(=O)C2CCCCC2C(=O)O)cc1 (configuration not stated)	-7.0%
Cc1cc(/C=N/NC(=O)C(O)(c2ccccc2)c2ccccc2)c(C)n1-c1cccc(C(=O)O)c1	2.3%
O=C(CSc1ncc2c(n1)-c1ccc(Cl)cc1N(Cc1ccccc1)S2(=O)=O)Nc1ccccc1C(F)(F)F	1.4%
Cc1cc(=O)oc2cc(NC(=O)c3c(Cl)cnn3C)ccc12	-9.4%
Cc1cccc(NC(=S)Nc2ccc(N3CCOCC3)cc2)c1C	-18.1%
CCOC(=O)c1c(NC(=O)C2CCN(S(=O)(=O)c3cccs3)CC2)sc(C)c1C	6.2%
CCCOc1ccc(C(=O)CCN2CCN(C(=O)OCC)CC2)cc1	44.7µM*
COc1ccc(NC(=O)Cn2nnc(-c3ccccc3NC(=O)c3ccco3)n2)cc1	-1.8%
COc1cccc(CNc2cc(C)ccn2)c1O	2.2%
O=C(NC1CCCN(Cc2ccccc2F)C1)c1cccs1 (configuration not stated)	-6.9%
COc1ccc(NC(=O)C2(S(=O)(=O)c3ccc(C)cc3)CC2)cc1	-1.3%
CN(c1ccccc1C(=O)NCC1CCCO1)S(C)(=O)=O (configuration not stated)	-5.2%
COc1ccc(C(=O)N/N=C/c2ccc(OC)c(COc3ccc(F)cc3)c2)cc1	-17.9%
COCCCNC(=O)c1ccc(Cn2c(=O)c3cccn3c3cccnc32)cc1	0.2%
COc1ccccc1C(=O)NC(CCSC)C(=O)NCC(c1cccs1)N(C)C (configuration not stated)	-11.6%
O=C(NC1CC1)C1CCN(Cc2cnn(-c3ccccc3)c2-n2cccc2)CC1	-18.5%
CNC(=O)N1c2ccccc2CCc2ccccc21	-9.8%
CCCCn1c(N)c(N(CC(C)C)C(=O)c2ccc3c(c2)NC(=O)C(C)S3)c(=O)[nH]c1=O (configuration not stated)	-4.0%
Cc1cc(C)cc(OCc2nc(-c3cccnc3)no2)c1	-14.5%
O=C(Nc1cc([N+](=O)[O-])ccc1O)c1cccc(C(=O)Nc2cc([N+](=O)[O-])ccc2O)c1	-11.0%
CCc1c(C)nc(N2CCN(c3cccc(OC)c3)CC2)[nH]c1=O	-13.9%
Cc1cc(/C=N/N2CCN(C)CC2)c(C)n1-c1ccc(Cl)cc1	17.9%
CCCCSc1nc2c(c(=O)n1CC)SC(C)C2 (configuration not stated)	-19.2%
CCCC[C@@H](C=O)NC(=O)[C@H](CC(C)C)NC(=O)OCc1ccccc1	35.5µM*
COc1ccccc1[C@@H]1C(c2cccc(Cl)c2)=NN(c2ccc(Br)cc2)[C@H]1C(=O)N1CCOC1=O	-13.7%&5.9%
COc1ccc(COC(=O)Nc2cc3c(C(F)(F)F)nn(C)c3s2)cc1	0.6%
Cc1cc(F)ccc1S(=O)(=O)Nc1ncnc2scc(-c3ccc(F)cc3)c12	-6.4%
O=C(NCN1C(=O)C2C3C=CC(C3)C2C1=O)Nc1ccccn1 (configuration not stated)	5.0%
O=C(c1ccc(NC2=NC3CS(=O)(=O)CC3S2)cc1)N1CCN(c2ccccc2F)CC1 (configuration not stated)	-10.6%
O=C(CSc1cn(CC(=O)N2CCCCCC2)c2ccccc12)Nc1ccccc1F	7.1%
O=C(CN1C(=O)NC(c2ccccc2)(c2ccccc2)C1=O)NCc1cccs1	?
CCCCOc1ccc(C(=O)N2CCN(c3ncccn3)CC2)cc1	-7.2%
O=C1N(Cc2ccccc2)CC2(Br)COCOC12O (configuration not stated)	?
CC1CC(C)CN(C(=O)CSc2nnc(-c3ccc(Cl)s3)o2)C1 (configuration not stated)	-3.5%
O=[N+]([O-])c1ccc2nc(SCc3cn4cc(Cl)ccc4n3)[nH]c2c1	-22.1%
Cc1ccc(CN2CCC(C(=O)Nc3ccc(Oc4cccnc4)cc3)CC2)cc1	1.8%
FC(F)(F)c1nc(N2CCN(c3ccccc3)CC2)nc2c1CCCCC2	10.2%
Cc1ccc(NC(=O)CSc2ncc3ccccn23)cc1C	-17.2%
Cc1cc(S(=O)(=O)N2CCOCC2)ccc1OCC(=O)N1CCCC1	-11.0%
Cc1csc(NC(=O)Cc2ccccc2[N+](=O)[O-])n1	-1.5%
NC(=O)c1ccc(-n2nnnc2SCC(=O)NC2CCCCC2)cc1	15.5%
Cn1cc(Br)c(-c2cccc(N3C(=O)CCCC3=O)c2)n1	-20.7%
CC(=O)c1cnc2cc(-c3ccc(Cl)cc3)nn2c1C	5.4%
Cc1cc(C)n2nc(SC(C)C(=O)NC3CCCCC3C)nc2n1 (configuration not stated)	?
CCOC(=O)c1ccc(CSc2ncn[nH]2)o1	-12.2%
Cc1cccc(C)c1NC(=O)CNC(=O)Cc1ccccc1[N+](=O)[O-]	6.8%
CSCC[C@H](N)C(=O)NC[C@H]1O[C@@H](n2cnc3c(N)ncnc32)[C@H](O)[C@@H]1O	-24.1%
CSCC[C@H](NC(=O)CCn1nnc2ccccc2c1=O)C(=O)O	9.6%
CCOC(=O)C1CCN(C(=O)c2sccc2Cl)CC1	-4.0%

(next part)
SMILES	VDR inhibitor
N#Cc1ccccc1Cn1c(=O)n(-c2ccc(CC(=O)NCc3ccco3)cc2)c(=O)c2sccc21	-0.8%
CCCOC1CCCN(C(=O)CCCn2nnnc2CN2CCOCC2)C1 (configuration not stated)	0.3%
Cc1nn(C(C)C(=O)NCc2ccccc2)c(C)c1[N+](=O)[O-] (configuration not stated)	1.4%
O=C(CSc1ccccc1)Nc1ccc(N2CCN(c3ccccc3)CC2)c(F)c1	4.7%
O=C(CSc1nc2ccccc2s1)NCC1CCCO1 (configuration not stated)	-18.7%
Cc1ccc(C)n1NC(=O)c1ccc(O)cc1	1.3%
CC1CCc2c(sc3nnn(Cc4ccc(F)cc4)c(=O)c23)C1 (configuration not stated)	-16.1%
NC(C(=O)O)c1cccc(O)c1 (configuration not stated)	13.5%
CCOC(=O)N1CCN(C(=O)CSCC(=O)Nc2nc(-c3ccccc3)cs2)CC1	-4.5%
CS(=O)(=O)Nc1cccc(-c2nc(N3CCNCC3)c3ccccc3n2)c1	-0.8%
CCOC(=O)C1=C(COC(=O)c2sccc2C)NC(=O)NC1C (configuration not stated)	-9.3%
COc1cccc(NC(CNS(=O)(=O)c2ccc(Cl)cc2)c2ccccc2)c1 (configuration not stated)	19.6%
CCCCN(C(=O)COc1ccc(NC(C)=O)cc1)C1CCS(=O)(=O)C1 (configuration not stated)	-23.2%
O=C(CCCCCn1c(=S)[nH]c2ccc(N3CCOCC3)cc2c1=O)NCc1ccccc1Cl	-22.4%
O=c1c(Cc2ccccc2)c(O)c2cccc3c4c(n1c23)CCCC4	-10.9%
Cc1ccsc1CN(C(=O)COc1ccc(Cl)cc1)C1CCS(=O)(=O)C1 (configuration not stated)	5.2%
COc1ccc(-c2cc3ccccc3n2CC(O)CN2CCC(C)CC2)cc1 (configuration not stated)	-6.8%
Cc1ccc(S(=O)(=O)NC2CCCCCCC2)cc1	-18.2%
COc1ccc(C2CC(c3cccs3)=NN2C(=O)c2ccc(Br)o2)cc1 (configuration not stated)	8.8%
COc1ccc(C2(C)NC(=O)N(CC(=O)Nc3ccc(Br)cc3F)C2=O)cc1OC (configuration not stated)	1.2%
O=C(Nc1cc2c3c(c1)CC(=O)N3CCC2)c1ccccc1F	-7.7%
CCN(CC(=O)NCc1ccc(Cl)cc1)S(=O)(=O)c1ccc(NC(C)=O)cc1	16.5%
O=C(NCc1cccnc1)C1CCN(C(=O)c2ccc(Cl)cc2Cl)CC1	9.5%
CC(C)N(C(=O)c1ccccc1-c1ccccc1)C(C)C	-8.9%
CCC(Oc1ccccc1OC)C(=O)Nc1ccc2c(c1)OCCO2 (configuration not stated)	17.9%
O=C(CN(c1ccccc1)S(=O)(=O)c1ccc(F)cc1)NC1CCCCCC1	20.1%
CCc1ccccc1Nc1nc(N)nc(COC(=O)C2=COCCO2)n1	1.5%
CCN(CC)CCSc1nnc2c3ccccc3n(Cc3ccccc3)c2n1	8.8%
CC(=O)Nc1cccc(NC(=O)CCN2C(=O)c3ccccc3S2(=O)=O)c1	4.3%
COc1ccc(C)cc1NC(=O)c1nn(C)cc1Br	-5.3%
CN1CCN(CC(=O)Nc2sc3c(c2C(=O)Nc2ccccc2)CCCC3)CC1	-0.9%
CCC1CN(CC(=O)NCc2cccc(Br)c2)c2ccccc2S1 (configuration not stated)	13.1%
COCCN(C(=O)c1csnn1)C(C(=O)NC1CCCCC1)c1ccccc1F (configuration not stated)	7.6%
CCCCCCOc1ccc(N2C(=O)CC(SC(=NCC)NCC)C2=O)cc1 (configuration not stated)	2.8%
Cc1n[nH]c(C)c1CCCCOc1ccccc1	-11.1%
O=C(O)c1cccnc1SCC(=O)C12CC3CC(CC(C3)C1)C2	13.4%

Sorted by count of non-hydrogen atoms (descending): some entries from above
SMILES	VDR inhibitor
CCN(CC)CCSc1nnc2c3ccccc3n(Cc3ccccc3)c2n1	8.8%
CCc1ccccc1Nc1nc(N)nc(COC(=O)C2=COCCO2)n1	1.5%
CCC(Oc1ccccc1OC)C(=O)Nc1ccc2c(c1)OCCO2 (configuration not stated)	17.9%
CCC1CN(CC(=O)NCc2cccc(Br)c2)c2ccccc2S1 (configuration not stated)	13.1%
COc1ccc(C)cc1NC(=O)c1nn(C)cc1Br	-5.3%
Cc1n[nH]c(C)c1CCCCOc1ccccc1	-11.1%

Remaining list, next part
SMILES	VDR inhibitor
C[C@@H]1CN([C@H](C)CO)C(=O)c2cccc(NC(=O)NC3CCCCC3)c2O[C@@H]1CN(C)C(=O)Nc1ccc(C(F)(F)F)cc1	-2.0%
CCOc1nc(N2CCOCC2)nc(N2CCOCC2)n1	-12.2%
CC(C)(C)NC(=O)CN(C(=O)c1csnn1)c1cccc2c1CCCC2	4.0%
O=C(CSc1nc2cc3ccccc3cc2[nH]1)Nc1ccc(F)cc1	-15.3%&-3.1%
COC(=O)c1c(S(N)(=O)=O)c2ccccc2n1C	12.2%
C=CCc1ccc(OCCCCCN2CCOCC2)c(OC)c1	3.1%
COCCNC(=O)CN1N=C(c2ccc(C)cc2)CCC1=O	-11.0%
CC(C)(C)c1ccc(C(=O)NCCCn2ccnc2)cc1	-29.3%
O=C(NCc1ccc(F)cc1)c1cccc(NC2=NC3CS(=O)(=O)CC3S2)c1 (configuration not stated)	-5.1%
CC(C)(C)NC(=O)CSc1ncnc2c1nnn2Cc1ccccc1Cl	?
Cc1ccccc1NC(=O)Cc1ccccc1	-10.9%
CCn1c(SCC(=O)c2ccc([N+](=O)[O-])cc2)nnc1-c1ccc(Cl)cc1	-10.2%
NCCc1nnc(SCc2ccccc2F)o1	-5.5%
Cc1cc(NC(=O)/C=C/c2ccccc2Cl)no1	-11.0%
O=[N+]([O-])c1cc([N+](=O)[O-])c(Oc2cccc3c2CCCC3)cc1NN1CCCCC1	-8.5%
Cc1cccc(-c2noc(CCC(=O)NCC3CCCO3)n2)c1 (configuration not stated)	6.0%
CC1CCCC(C)N1C(=O)CSc1nnc(COc2cccc3cccnc23)o1 (configuration not stated)	9.0%
CCc1ccc(NC(=O)CSc2nc(NS(=O)(=O)c3ccccc3)cc(=O)[nH]2)cc1	20.0%
COc1ccc(C)cc1NC(=O)NC(C)c1ccc2c(c1)OCO2 (configuration not stated)	7.4%
COc1ccccc1CNC(=O)c1cc(C)nc2ccccc12	-4.2%
CCN(CC)C(=O)c1csc(Nc2cccc3ccccc23)n1	-3.8%
O=C(Nc1ccc(C(F)(F)F)cc1Cl)c1ccc(Cn2cc(Br)cn2)o1	-11.4%
CC(C)NC(=O)c1cc(-c2ccc(Br)cc2)on1	-14.3%
O=C(c1ccccc1)c1ccc(C(=O)N2CCN(c3ccccc3Cl)CC2)cc1	-8.4%
Cc1ccc(Nc2cc(-n3nc(C)cc3C)ncn2)c(C)c1	7.9%
CCC(CC)=NNC(=O)c1ccccc1OCc1ccc(F)cc1	-7.2%
COc1ccc(NC(=O)CCn2cc(C)c3ccccc32)cc1	-2.3%
O=C(N/C(=C/C=C/c1ccccc1)C(=O)N1CCOCC1)c1ccccc1Cl	5.7%
COc1ccc(C/C(N)=N/OC(=O)c2cccs2)cc1	4.0%

Reformatted with each value named: four of the compounds above
molecule: Cc1csc(NC(=O)Cc2ccccc2[N+](=O)[O-])n1
  VDR inhibitor: -1.5%
molecule: NC(=O)c1ccc(-n2nnnc2SCC(=O)NC2CCCCC2)cc1
  VDR inhibitor: 15.5%
molecule: Cn1cc(Br)c(-c2cccc(N3C(=O)CCCC3=O)c2)n1
  VDR inhibitor: -20.7%
molecule: CC(=O)c1cnc2cc(-c3ccc(Cl)cc3)nn2c1C
  VDR inhibitor: 5.4%
